# Screens from PubChem.
# PrP 5UTR inh: suppresses PrP 5' UTR mRNA reporter expression. cell-based PrP 5' UTR mRNA reporter, plate reader. inhibition, % (no concentration beside the values). 0.35% of 340,000 active;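 active means every replicate at 50% or more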;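 further: 0 = median of the neutral control wells; tested in H4 reporter cells; numbers are from one replicate; inactives centre near -14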
# Bead autofluor: counter-screen for toxin protease inhibitors: compound fluorescence; 3.1% of 360,000 active; compound autofluorescence counterscreen, microsphere flow cytometry; hits give high values; fluorescence intensity (test concentration not listed);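 active means at least 3 SD above the mean of all compounds, about 16000 in these data; inconclusive means too few beads counted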;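 further: 100 nL of 1 mM stock went into each well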
# ugtP null kill: compounds lethal to S. aureus RN4220 ugtP deletion mutant. OD600 growth, 16 h; some inactives read as strong as hits. growth inhibition, % (test concentration not listed). 0.54% of 330,000 active;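 active means z-score under -3 and OD600 up to 0.15 on both plates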;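 further: plate controls were untreated wells for no effect and antibiotic for full effect; wells of about 80 µL received 100 nL stock; the first replicate is given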
# BJeLR lethal: kills HRASV12-expressing BJeLR cells. 0.17% of 300,000 active. BJeLR (HRASV12) viability, CellTiter-Glo ATP luminescence, 48 h; reference of the scale not given here. inhibition, % (no concentration beside the values);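 active means replicate mean above 50%; inconclusive means above 50% but judged a plate artefact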;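 further: 50 nL library stock added to about 25 µL; numbers are from one replicate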
# Sa RN4220 lethal: kills Staphylococcus aureus RN4220. inhibition, % (no concentration beside the values). 0.33% of 330,000 active. S. aureus RN4220 growth, OD600, 16 h;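 active means z-score of -3 or lower and OD600 up to 0.18 on both plates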;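 further: plate controls were untreated cells for no effect and reference antibiotic for full effect; stock transfer was 100 nL into about 80 µL; one replicate is shown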
# Mtb hypoxia rep: inhibitors of hypoxia-regulated fluorescent reporter in Mycobacterium tuberculosis; M. tuberculosis hypoxia-regulated fluorescent reporter, fluorescence; fluorescence inhibition, % (test concentration not listed); 0.1% of 300,000 active; AID 1159583;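 active means 35 to 45% if threefold the growth effect, above 45% if 1.5-fold the growth effect; inactive means the rest, general growth blockers included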;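 further: wells of about 50 µL received 100 nL stock; 0% = vehicle wells and 100% = reference inhibitor wells; whole bacteria with a GFP reporter of the hypoxia response; strong numbers were not always called active; many hits fall short of the cut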
# Mtb hypoxia rep growth: further read-out of Mtb hypoxia rep, marked with its call; growth inhibition, %; measured here: M. tuberculosis growth (absorbance);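 0% = vehicle and 100% = reference antibiotic; read after six days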
# * = called active by the depositor; ? = inconclusive; nt = no result given.
SMILES,PrP 5UTR inh,Bead autofluor,ugtP null kill,BJeLR lethal,Sa RN4220 lethal,Mtb hypoxia rep,Mtb hypoxia rep growth
Cc1ccccc1-c1cccc(CN2CCN(C)C(CCO)C2)c1 (configuration not stated),-22,4226,6,5,6.6,1,2
COCCCN1C(=O)C(O)=C(C(=O)c2ccc(C)o2)C1c1cccc(Br)c1 (configuration not stated),0,7968,-3,-3,13,9,2
COCCn1c(SCC(=O)c2c[nH]c3ccccc23)nnc1-c1ccncc1,2,3613,3,-2,4.7,13,4
COC(=O)c1sccc1NC(=O)c1ccccc1,-34,2436,0,0,14,6,0
CCNc1nc(NC(C)(C)C)nc(N2CCCC2)n1,-11,4064,38,-13,8.5,-10,16
COCCOC(=O)c1c(N)n(Cc2ccccc2)c2nc3ccccc3nc12,14,4009,6,-4,2.2,nt,nt
C=CCNC(=O)c1onc(CSc2cc(C)cc(C)c2)c1C(=O)NCC=C,-3,3964,0,8,5.5,5,7
C/C(=N\NC(=O)COc1ccc(C)cc1C(C)C)c1ccc(-n2ccnc2)cc1,-23,10429,nt,4,nt,nt,nt
C/C(Cn1cnc([N+](=O)[O-])n1)=N/NC(=O)COc1ccccc1Cl,-12,2169,nt,-1,nt,nt,nt
COc1cc(OC)cc(C(=O)OCC(=O)N(C)c2ccccc2)c1,-15,4594,5,-8,2.5,2,-7
N#Cc1ccccc1/C=N/Nc1nc(-c2ccccc2)c2cc(Cl)ccc2n1,-16,3917,nt,-6,nt,nt,nt
COc1ccc(/C=C/C(=O)NCC(=O)NN=C(C)c2ccco2)cc1,nt,nt,0,nt,1.3,-3,-2
COc1ccccc1NS(=O)(=O)c1cccc(C(=O)NN=Cc2ccc(NC(C)=O)cc2)c1,nt,nt,14,nt,1.8,2,12
Cc1ccc(S(=O)(=O)N2CC(C(=O)O)=CCC2c2ccc3c(c2)OCO3)cc1 (configuration not stated),nt,nt,-6,nt,2.3,4,4
O=[N+]([O-])c1cc(C(F)(F)F)ccc1NCCCN1CCOCC1,2,4441,6,9,4.0,7,8

# Gathered by group: the compounds so far containing an aryl methoxy group (three)
SMILES,PrP 5UTR inh,Bead autofluor,ugtP null kill,BJeLR lethal,Sa RN4220 lethal,Mtb hypoxia rep,Mtb hypoxia rep growth
COc1cc(OC)cc(C(=O)OCC(=O)N(C)c2ccccc2)c1,-15,4594,5,-8,2.5,2,-7
COc1ccc(/C=C/C(=O)NCC(=O)NN=C(C)c2ccco2)cc1,nt,nt,0,nt,1.3,-3,-2
COc1ccccc1NS(=O)(=O)c1cccc(C(=O)NN=Cc2ccc(NC(C)=O)cc2)c1,nt,nt,14,nt,1.8,2,12

# Other results follow.
SMILES,PrP 5UTR inh,Bead autofluor,ugtP null kill,BJeLR lethal,Sa RN4220 lethal,Mtb hypoxia rep,Mtb hypoxia rep growth
Cc1ccc(S(=O)(=O)Nc2ccc(SC(F)F)cc2)c(C)c1,-3,2036,12,2,2.3,7,3
CCC1CCC/C1=N\NC(=O)c1cc(C)[nH]n1 (configuration not stated),-12,10559,nt,-9,nt,nt,nt
Cc1ccc(S(=O)(=O)N(CC(=O)Nc2cccnc2)c2cccc([N+](=O)[O-])c2)cc1,-4,4431,-9,-18,6.5,4,0
CCN(C[C@H]1N[C@@](CC)(C(=O)OC)[C@H]2C(=O)N(C)C(=O)[C@@H]12)S(=O)(=O)c1ccc(C)cc1,1,3033,6,nt,4.3,-10,-8
O=C(OC(C(=O)NCc1cccs1)c1ccccn1)c1cccs1 (configuration not stated),-2,6830,4,-2,6.3,19,5
CC(C)(C)NC(=O)C(=O)NNC(=O)c1ccccc1Br,-16,4044,0,6,4.5,8,4
COc1ccc(S(=O)(=O)N2CCCCC2)cc1NS(=O)(=O)c1ccccc1,-23,2751,4,nt,7.3,9,6
Cc1cccc(NC(=O)CSCC(=O)N=c2sccn2C)c1,-6,4795,3,14,4.8,10,7
O=C(CSc1ccccc1C(=O)N1CCN(c2ccccc2)CC1)N1CCCC1,11,3846,13,nt,2.2,-2,1
CCCC1(CC)C(=O)NC(=O)N=C1N (configuration not stated),-9,3406,6,nt,0.7,13,7
C/C=C/c1ccc(OCC(O)CNCC(c2ccc(OC)cc2)N(C)C)c(OC)c1 (configuration not stated),-11,4489,5,2,0.5,3,9
COc1ccc(CN2CCCC(C(=O)N(C)Cc3ccccc3)C2)cc1OC (configuration not stated),-13,4205,4,-3,5.5,nt,nt
Cc1cccc(N=C2NC(=O)/C(=C/c3cccn3C)S2)c1,-29,6091,-19,2,1.1,11,-3
CCSc1nnc(NC(=O)C2CC(=O)N(Cc3ccc(C)cc3)C2)s1 (configuration not stated),-8,3442,5,0,4.7,-4,4
COc1cc(S(=O)(=O)N2CCOCC2)ccc1NC(=O)COC(=O)CC12CC3CC(CC(C3)C1)C2,4,24036*,-20,-4,1.6,-6,9
COC(=O)CS(=O)(=O)c1ccc(C)cc1,-14,4391,2,-8,0.3,9,3
COc1ccccc1N(CC(=O)Nc1ccc(C)cc1Cl)S(=O)(=O)c1cccs1,-14,3771,-12,nt,1.0,21,9
Cc1cc(C)nc(N/N=C/c2c[nH]c3ccccc23)n1,-18,4529,nt,3,nt,nt,nt
O=C(NNC(=O)c1cc2ccccc2o1)c1ccc(F)cc1,-23,4148,5,nt,1.4,0,-15
CC(=O)N1CCC(N(CCN2CCOCC2)C(=S)Nc2c(C)cccc2C)CC1,-22,2711,7,-5,4.1,6,1
O=[N+]([O-])c1ccccc1S(=O)(=O)NC1CCCCCCC1,-7,3698,nt,0,nt,nt,nt
O=C(COc1cccc2c1CCN(Cc1ccccc1F)C2=O)N1CCCCC1,-7,4324,2,-22,2.7,7,9
CC1CCN(CC(O)COC2CC(C)CCC2C(C)C)CC1 (configuration not stated),-28,4194,3,7,2.9,9,7
COc1ccc(/C(C)=N/Nc2nc3ccccc3nc2C)cc1OC,-35,3651,nt,0,nt,nt,nt
O=C(Nc1ccc2c(c1)CCC2)C1CCCO1 (configuration not stated),-24,11506,-5,-1,2.1,-2,0
COc1ccc(C)cc1N(CC(=O)NCCSCc1cccc(Cl)c1)S(C)(=O)=O,-23,3639,-1,3,1.5,5,-6
Cn1nc(-c2ccccc2)c(CSc2cccc(Cl)c2)c1Cl,-9,3180,28,13,-12,2,4
Cc1cc(C(F)(F)F)n(-c2ccc(N)cc2)n1,2,3132,-1,5,-0.1,-12,-2
C=CCn1c(O)c(N=Nc2ccccc2O)c2ccccc21,-7,4292,0,nt,-0.2,4,6
Cc1onc(-c2c(Cl)cccc2Cl)c1NC(=O)N1CCSCC1,-11,4379,5,0,6.0,9,15
O=C1OC(/C(=C\NCc2ccccc2)[N+](=O)[O-])c2ccccc21 (configuration not stated),-4,4199,11,-5,8.0,4,1
Cc1ccc(S(=O)(=O)N(C)c2nonc2C)cc1,-15,19642*,-8,5,7.7,7,9
Cc1nc(NC(=O)CCl)sc1C(=O)N(C)C,-27,4496,8,1,4.1,10,19
CCCN(C(=O)Cn1ncc2c([nH]c3ccccc32)c1=O)c1ccccc1C,-27,5363,2,3,6.0,8,-7
CC(=O)c1sc(NC(=O)CCS(=O)(=O)c2ccc(C)cc2)nc1C,-1,4703,6,8,3.1,13,6
O=C(CNC(=O)c1ccccc1)OC1CCCCC1,-70,2085,1,-1,4.2,9,0
Cc1ccc(S(=O)(=O)N2C(=O)CCC2C(=O)N2CCN(C)CC2)cc1 (configuration not stated),-10,22032*,8,nt,5.2,5,-3
O=C(CS(=O)c1ccc(F)cc1)Nc1ccccc1Cl (configuration not stated),-20,4183,nt,-1,nt,nt,nt
Cc1ccc(S(=O)(=O)SCCCSS(=O)(=O)c2ccc(C)cc2)cc1,-11,3769,2,nt,4.4,6,8
NC1=NN(c2cccc(C(=O)O)c2)C(=O)C1,-34,10721,6,8,4.4,6,5
COc1cc(C(O)P(=O)(OCC(C)C)c2ccc(N(C)C)cc2)cc(OC)c1OC (configuration not stated),-25,4140,4,-6,2.1,19,17
CC(C)COc1ccc(C(=O)N/C(=C/c2cccc([N+](=O)[O-])c2)C(=O)O)cc1,-30,4603,-3,4,6.3,14,-2
CN1CCN(C(=O)CN2C(=O)NC(C)(c3ccc4ccccc4c3)C2=O)CC1 (configuration not stated),-15,?,8,nt,5.6,0,-3
Nc1nnc(SCC(=O)Nc2cc(S(=O)(=O)N3CCOCC3)ccc2N2CCCC2)s1,-26,4154,0,nt,3.3,9,-6
O=C(Nc1cccc(F)c1)C1CCN(C(=O)c2ccc(Br)cc2)CC1,-122,23473*,-6,-4,0.7,6,10

# Molecules above with an NH in an aromatic ring, in the order listed:
SMILES,PrP 5UTR inh,Bead autofluor,ugtP null kill,BJeLR lethal,Sa RN4220 lethal,Mtb hypoxia rep,Mtb hypoxia rep growth
COCCn1c(SCC(=O)c2c[nH]c3ccccc23)nnc1-c1ccncc1,2,3613,3,-2,4.7,13,4
CCC1CCC/C1=N\NC(=O)c1cc(C)[nH]n1 (configuration not stated),-12,10559,nt,-9,nt,nt,nt
Cc1cc(C)nc(N/N=C/c2c[nH]c3ccccc23)n1,-18,4529,nt,3,nt,nt,nt
CCCN(C(=O)Cn1ncc2c([nH]c3ccccc32)c1=O)c1ccccc1C,-27,5363,2,3,6.0,8,-7

# (further entries)
SMILES,PrP 5UTR inh,Bead autofluor,ugtP null kill,BJeLR lethal,Sa RN4220 lethal,Mtb hypoxia rep,Mtb hypoxia rep growth
COC(=O)c1cc(OC)c(OC)cc1NC(=O)C1CCCO1 (configuration not stated),-24,18495*,-1,-6,3.1,0,5
CS(=O)(=O)c1ccccc1C(=O)Nc1cccc(-c2nc3ccccc3o2)c1,-22,6108,-12,-2,1.9,-5,-5
Cc1cc(C(=O)N/N=C/c2ccc(C)s2)n[nH]1,-65,5582,nt,8,nt,nt,nt
CN(C[C@H](c1ccccc1)N(C[C@H](Cc1ccccc1)N(CCc1ccccc1)N=O)N=O)N=O,-20,4146,nt,-4,nt,nt,nt
C=CCNC(=S)Nc1c(C(=O)OC)[nH]c2cc(OC)ccc12,-23,3815,7,1,5.8,3,10
COc1ccc(/C(C)=N\Nc2nc(-c3ccc(Cl)cc3)cc(C(F)(F)F)n2)cc1OC,-1,2376,nt,1,nt,nt,nt
COc1cccc(C=Nn2c(C3CCCCC3)n[nH]c2=S)c1O,nt,nt,8,nt,4.3,0,7
CCOC(=O)C1=C(C)NC(C)=C(C(=O)OC)C1c1cccc([N+](=O)[O-])c1 (configuration not stated),7,5727,-9,-4,0.5,12,3
COc1ccc2nc(NCCCO)[nH]c2c1,-7,3243,-3,-2,4.2,6,3
Cc1ccccc1CSc1nnc([C@@H]2CCCN2)o1,74*,4532,-1,0,-0.7,-4,8
O=C(NCC(O)c1ccc([N+](=O)[O-])cc1)C1CCCCC1 (configuration not stated),-33,3308,6,-4,3.9,-2,0
Cc1cccc(N2CCN(S(=O)(=O)c3ccc(Cl)nc3)CC2C)c1 (configuration not stated),-7,3911,4,nt,1.3,23,14
Cc1c(OC(C)C(=O)NCCCN2CCOCC2)ccc2c3c(c(=O)oc12)CCC3 (configuration not stated),0,4005,-1,3,2.4,5,1
COc1ccc2c(c1OC)CN(C)CCc1cc3c(cc1C(O)C2)OCO3 (configuration not stated),1,3666,-3,4,6.0,nt,nt
Cc1nonc1NC(=O)CSc1nc(C23CC4CC(CC(C4)C2)C3)nc2ccccc12,-47,4905,-20,3,-12,11,5
COc1ccccc1C1C2=C(COC2=O)Nc2cc3c(cc21)OCO3 (configuration not stated),66*,9139,0,72*,0.9,-1,9
CCOc1ccc(N(CC(=O)Nc2ccc(OC)cc2)S(=O)(=O)c2c(C)[nH]c(=O)[nH]c2=O)cc1,-33,4657,4,-2,2.5,12,9
Nc1cccc2c1C(=O)N(c1ccccc1)C2=O,12,5075,nt,-7,nt,nt,nt
Oc1ccc2c(ccc3[nH]cnc32)c1,-9,2918,-10,5,5.4,-11,9
CCCNC(=O)C1(CC2CC(c3ccccc3)=NO2)CCN(C(=O)c2cc(OCC)c(OCC)c(OCC)c2)CC1 (configuration not stated),3,4085,nt,3,nt,nt,nt
CN(C)c1ncccc1-c1nc2ccccc2s1,-17,4435,9,-3,20,11,-1
COc1ccc(/C=N/OCC(=O)Nc2nc3ccccc3s2)cc1OC,-9,8098,nt,1,nt,nt,nt
CN(Cc1ccccc1)C(=O)COC(=O)CNS(=O)(=O)c1ccc2ccccc2c1,-18,?,8,-2,4.1,1,-7
CCOc1ccc(CC2C(=O)NC(=O)N(c3ccc(CC)cc3)C2=O)cc1 (configuration not stated),-4,3165,7,-3,5.8,2,-1
COc1ccc(-c2cc3c(=O)n(CC(=O)NCCCN4CCC(N5CCCCC5)CC4)ncn3n2)cc1,-13,5565,-1,16,-1.7,6,-6
